LANA-H2B inh = blocks KSHV LANA binding to histone H2A/H2B; cell-free LANA-H2A/H2B peptide, fluorescence polarization; inhibition, % (no concentration beside the values); 0.6% of 320,000 active; in the data active means inhibition mostly above about 10%, no sharp cut-off; inactive means mostly below about 6.7%;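 further: stock transfer was 7.5 nL into about 10 µL; 0% = median of vehicle wells and 100% = median of positive control wells; one replicate is shown; the record names a cut of 25% in any replicate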
A1 inh = inhibitors of the anti-apoptotic protein A1, read as caspase activation. MEF A1-2A-BIM cells, Caspase-Glo 3/7 luminescence, 3 h; percent of clofoctol response, vehicle zero. caspase activation, % (test concentration not listed). 0.066% of 330,000 active;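 active means over half of replicate activation scores above 10%, or exactly half above 10 with the replicate mean above 10; inconclusive means replicate mean below 10 yet half the replicates above 10; inactive means over half of replicates below 10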;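 further: wells of about 30 µL received 50 nL stock; many hits fall short of the cut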
Beta2AR agonist = activates human beta-2 adrenergic receptor causing internalization | 0.43% of 340,000 active | Am2.2-beta2AR cells, FAP receptor internalization, flow cytometry; reference of the scale not given here | P07550 | response, % (concentration not given with the values);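 active means response above a set limit, near 3 SD of response in nonfluorescent compounds, cut at about 42% in these data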;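 further: stock transfer was 100 nL into about 11 µL; a reference agonist was the positive control; negative values mostly stem from fluorescent compounds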
Target sequence (P07550 whole entry, looked up): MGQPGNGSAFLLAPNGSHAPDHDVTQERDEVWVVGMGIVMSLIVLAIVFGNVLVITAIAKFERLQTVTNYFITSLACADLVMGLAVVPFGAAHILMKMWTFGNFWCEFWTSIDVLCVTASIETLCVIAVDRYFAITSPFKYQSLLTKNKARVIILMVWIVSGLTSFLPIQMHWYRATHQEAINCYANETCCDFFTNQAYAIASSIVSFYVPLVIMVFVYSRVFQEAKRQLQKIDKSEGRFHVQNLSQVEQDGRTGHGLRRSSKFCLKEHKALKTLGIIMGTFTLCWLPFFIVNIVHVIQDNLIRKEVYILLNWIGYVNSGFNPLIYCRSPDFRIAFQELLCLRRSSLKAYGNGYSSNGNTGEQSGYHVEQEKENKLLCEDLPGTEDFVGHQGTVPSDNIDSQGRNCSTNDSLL
UCH37 inh = blocks the human deubiquitinase UCH37 | 0.33% of 330,000 active | purified proteasome/UCH37, Ub-AMC cleavage fluorescence | Q9Y5K5 | inhibition, % (concentration not given with the values);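 active means mean of two replicates above 20%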;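 further: 0% = compound-free wells with enzyme and 100% = wells lacking proteasome; stock transfer was 100 nL into about 20 µL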
Target sequence (Q9Y5K5 whole entry, looked up): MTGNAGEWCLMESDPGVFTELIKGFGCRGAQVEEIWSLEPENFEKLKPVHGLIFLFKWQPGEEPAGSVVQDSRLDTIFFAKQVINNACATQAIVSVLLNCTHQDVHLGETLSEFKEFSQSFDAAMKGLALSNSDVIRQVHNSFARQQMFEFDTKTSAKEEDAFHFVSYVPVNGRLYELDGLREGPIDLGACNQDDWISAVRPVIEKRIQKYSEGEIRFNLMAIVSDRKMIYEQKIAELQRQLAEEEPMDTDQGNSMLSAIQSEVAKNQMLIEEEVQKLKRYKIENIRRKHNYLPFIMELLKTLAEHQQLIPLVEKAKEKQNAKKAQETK
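Test system – human UCH37 enzyme supplied as purified proteasome complex · Incubation – 30 min preincubation with enzyme, 25 min cleavage at room temperature · Detection – AMC fluorescence from Ub-AMC cleavage, excitation 355 nm, emission 460 nm · Benchmarks – no-proteasome wells (full inhibition) and compound-free wells (no inhibition)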
HNF4A DNA FP = change in binding of human HNF4 alpha to DNA; HNF4a-FITC DNA binding, fluorescence polarization, 1 h; activity change, % at 10 µM; 0.3% of 360,000 active; AID 1224865; in the data active means activity change above about 30%, passing the limit was not always enough;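 further: controls were the assay level and a saturating level of protein; the project sought stronger binding though the title names inhibitors; some compounds called inactive have numbers as strong as hits; positive values seem to mean higher polarization but the record does not say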
Ecoli growth = inhibitors of Escherichia coli growth | AID 1053175 | OD600, 23 h; hits give low values | 0.21% of 330,000 active | OD600 absorbance (concentration not given with the values);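 active means OD600 absorbance below the run mean of sample wells minus 3.6 SD, in any replicate, cut at about 0.56 in these data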;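 further: stock transfer was 300 nL into about 60 µL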
Vif A3G = inhibitors of Vif binding to APOBEC3G peptide, primary screen, biochemical, TR-FRET, GST-Vif 1-94, biotin-A3G peptide, dose response retest (AID 1117319). 0.57% of 260,000 active. one-dose inhibition, %; IC50 in µM for titrated hits. TR-FRET GST-Vif / biotin-A3G peptide binding; higher % means a stronger effect; test concentration not given here; strong numbers were not always called active;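 active means above the screen mean plus three standard deviations and confirmed in dose response; inconclusive means results disagree or hit not tested in dose response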;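 further: Vif residues 1-94 fused to GST binding biotinylated APOBEC3G peptide 110-148; 0% = full assay without inhibitor and 100% = GST in place of GST-Vif; retest series ran down from 100 µM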
The depositor's hits bear a star; ? = inconclusive; nt = no result given; & = joins results of further samples.

SMILES	LANA-H2B inh	A1 inh	Beta2AR agonist	UCH37 inh	HNF4A DNA FP	Ecoli growth	Vif A3G
CCC(C)NC(=O)CC(c1ccccc1)c1cc(C)ccc1O (stereo unspecified)	0.9	-0.2	-3	-0.2	0.7	0.69	11%
COC(=O)C1C(=O)NCC1c1ccccc1 (stereo unspecified)	-0.9	0.1	12	0.4	2.4	0.65	8%
Cc1ccc(C(=O)NNC(=O)Cn2nnc3ccccc32)cc1	nt	nt	7	3.9	0.7	0.7	5%
O=C1CC2(CCCCC2)Oc2ccc(O)cc21	-9.2	1.4	-5	-14	-0.2	0.68	3%
CN1CCc2c(sc(NC(=O)c3ccc(S(=O)(=O)N4CCc5ccccc54)cc3)c2C(N)=O)C1	-1.9	-0.7	nt	2.8	nt	0.69	-34%
CC1CCCC(C)N1C(=O)Cn1cnc2cc([N+](=O)[O-])ccc2c1=O (stereo unspecified)	5.8	-1.7	4	2.1	-2.6	0.63	1%
Cc1nc2ccccc2c(=O)n1Cc1ccc([N+](=O)[O-])cc1	1.4	0.0	0	5.4	6.4	0.67	nt
Cc1ccn2cc(CC(=O)O)nc2c1	-0.8	0.5	15	-2.4	-20	0.67	?
Cn1c(-c2ccc(F)cc2)cnc1SCC(=O)N1CCCCC1	-1.2	-0.5	10	5.3	-0.9	0.69	6%
O=C(NCc1ccccc1Cl)C(=O)NCC1OCCN1S(=O)(=O)c1ccc(F)cc1 (stereo unspecified)	3.7	0.7	0	1.3	4.4	0.67	nt
CCCCOP(=O)(OCCCC)C1(C)CC(=O)CC(C)(C)C1 (stereo unspecified)	nt	nt	-1	1.5	2.3	0.68	1%
CN(C(=O)CSc1nnc(N)s1)c1c(N)n(Cc2ccccc2)c(=O)[nH]c1=O	5.9	0.2	-5	5.7	0.1	0.76	65%
COc1cc2c(cc1OC)CN(C(=O)c1oc3ccccc3c1C)CC2	0.2	0.0	6	5.8	0.6	0.66	nt
O=C(Nc1ccccc1)c1ccc(NC2CCCCC2)c(S(=O)(=O)N2CCOCC2)c1	-4.4	-1.6	1	1.8	-2.7	0.75	0%
O=C(/C=C/c1ccc2c(c1)OCCO2)c1ccccc1	-1.8	-5.1	20	6.6	0.4	0.61	1%
CCc1nccn1S(=O)(=O)c1ccc2ccccc2c1	-2.2	-0.6	1	4.6	-0.7	0.71	16%
CC1Oc2ccccc2N(Cc2ccccc2Cl)C1=O (stereo unspecified)	-1.2	2.3	1	1.4	0.5	0.66	24%
C=C1CC(Cn2cc(Br)c(=O)[nH]c2=O)(c2ccc(-c3ccccc3)cc2)OC1=O (stereo unspecified)	nt	nt	51*	nt	1.4	nt	4%
CC1=C(C)C(O)N(Cc2ccccc2)C1=O (stereo unspecified)	-1.4	0.0	6	4.5	-10.0	0.7	-5%
O=S(=O)(c1ccccc1)C(/C=N\O)/C=C/c1ccccc1 (stereo unspecified)	0.5	-0.3	14	nt	2.8	nt	?
COc1cccc(C(=O)CC(=O)C(=O)Nc2ccc([N+](=O)[O-])cc2C)c1	-2.2	-0.1	19	6.7	-3.4	0.67	-2%
O=C1CCC(C(=O)OCc2nnc(-c3ccccc3)o2)=NN1	2.5	-0.3	-3	3.0	0.4	0.7	-6%
COc1ccc(C(=O)CNc2ccc(C)cc2C)cc1	3.7	0.4	6	2.8	0.6	0.69	-5%
O=C(NCC1CCCO1)c1nn2c(C(F)(F)F)cc(-c3ccc(Br)o3)nc2c1Br (stereo unspecified)	-3.3	0.6	2	-38	0.9	0.69	nt
Cc1cccc(NC(=O)c2ccccc2NC(=O)C2CCCCC2)c1C	0.4	0.2	-4	0.0	-2.2	0.66	3%
CCC(C(=O)NC(C)CCc1ccco1)n1nc(C)n2c(cc3occc32)c1=O (stereo unspecified)	-9.2	0.5	-15	0.0	-0.6	0.72	?
CCOc1ccc(NC(=O)C2CCN(S(C)(=O)=O)CC2)cc1	8.0	-0.4	0	4.5	-2.9	0.65	nt
CCC(C)(C)NC(=O)C(c1ccc(C)cc1)N(Cc1ccco1)C(=O)CCC(=O)Nc1nccs1 (stereo unspecified)	2.9	-1.0	11	3.1	-0.1	0.71	-2%
O=C(N[C@@H]1c2ccccc2CC[C@@H]1OCc1ccccc1)c1ccc(C(F)(F)F)cc1	nt	nt	3	-1.8	-1.7	0.76	-3%
COc1ccc(C)cc1NC(=O)c1sc2ncnc(N3CCN(c4ccccn4)CC3)c2c1C	-1.3	-0.5	2	-315	6.0	0.74	nt
COc1cc(Br)c(CC(=O)NC2CC2)cc1OC	-5.1	0.7	6	-0.9	-4.8	0.68	-7%
CCOc1ccccc1-n1nnnc1SCC(=O)Nc1cc2oc3ccccc3c2cc1OC	0.3	1.8	6	4.0	0.1	0.72	0%&-10%
Cc1cccc(NC(=O)N2CCCCCC2)c1C	1.4	1.0	2	0.5	1.8	0.62	1%
COc1ccc(C2C(C#N)=C(N)Oc3c2oc(CO)cc3=O)cc1 (stereo unspecified)	1.9	-0.3	-4	0.2	0.0	0.71	-2%
N/C(=N\OC(=O)/C=C/c1ccccc1)c1cccnc1	-4.0	-3.0	0	1.8	0.1	0.68	-1%
Cc1cccc(C)c1NC(=O)CCCN1CC(C)OC(C)C1 (stereo unspecified)	-2.5	-0.8	5	-1.5	5.3	0.74	7%
COC(=O)Cn1c(=O)c2c(nc3n2CC(C)CN3CCc2ccccc2)n(C)c1=O (stereo unspecified)	nt	nt	9	6.3	-0.9	0.65	4%
COCCN(CC(=O)Nc1cccc(C)c1C)C(=O)Cn1cnc2ccccc2c1=O	nt	nt	-2	-2.0	-0.3	0.72	-1%
C/C(=N\S(=O)(=O)c1ccc(C)cc1)NC(=S)Nc1ccc(C)cc1	3.2	0.8	4	5.4	-2.4	0.75	4%
CC(NC(=O)c1ccc(Br)cc1)c1ccc2c(c1)CCCC2 (stereo unspecified)	nt	-0.5	-17	-0.3	-1.7	0.67	nt
CCC(=O)NCc1cc(-c2nn(C)c(=O)c3ccccc23)ccc1OC	-0.2	1.5	-5	-3.9	4.1	0.65	-11%
COc1ccc(NC(=O)CN2C(=O)NC(C)(C3CC3)C2=O)cc1S(=O)(=O)N1CCCCC1 (stereo unspecified)	1.2	0.7	1	1.0	-2.4	0.62	2%
Cc1ccc(NC(=S)N/N=C/c2cccn2Cc2ccccc2F)cc1	0.7	0.4	-10	nt	2.1	nt	14%
COC(=O)c1ccc(COc2ccc(/C=N/O)cc2OC)o1	1.2	0.1	23	nt	-3.0	nt	-4%
O=C(COC(=O)c1cc([N+](=O)[O-])ccc1N1CCOCC1)NCc1ccc(Cl)cc1Cl	1.4	1.2	7	9.2	-2.5	0.74	7%
COc1ccc(-c2nc(S(=O)(=O)c3ccccc3)c(N3CCOCC3)o2)cc1	-8.4	1.4	4	1.7	3.2	0.67	nt
COc1ccccc1C(=O)NNC(=O)c1ccc(Cl)cc1	-0.1	-0.4	3	-0.2	0.7	0.65	nt
CCOc1ccc2cc(C#N)c(SCC(=O)OC)nc2c1	0.1	0.4	-4	-20	1.9	0.69	-110%
CC1CC1C(=O)Nc1cc(S(=O)(=O)N2CCOCC2)ccc1N1CCCC1 (stereo unspecified)	-1.2	0.3	1	2.8	-2.8	0.71	6%
CCOC(=O)C(CC)(CCC(=O)O)c1csc(N)n1 (stereo unspecified)	-2.9	0.7	0	4.3	-0.1	0.68	5%
O=C(CSc1ccc2c(c1)OCCO2)NCc1ccco1	-2.0	-0.6	4	0.9	-2.1	0.67	9%
O=C(COC(=O)C1CCCN1C(=O)c1cccs1)c1ccccc1 (stereo unspecified)	-9.9	0.5	-9	1.4	-4.6	0.68	?
COc1ccc(-n2nc([N+](=O)[O-])c(=NCCC3=CCCCC3)n2O)cc1	2.3	-0.2	-18	5.6	-1.5	0.67	-6%
COc1cccc(C(=O)CC(C(=O)O)c2ccc(F)cc2)c1 (stereo unspecified)	2.0	0.1	-1	0.3	-3.4	0.68	-1%
Cc1cc(C)cc(OCC(=O)Nc2cccc(-c3nnc(-c4ccco4)o3)c2)c1	-2.8	-1.2	26	2.3	-1.5	0.69	5%
Cc1nn(C)c(Cl)c1C(=O)NCC(=O)O	-10	-0.3	-4	3.6	0.0	0.67	-9%
CCCC(=O)OCC(=O)Nc1ccccc1Sc1ccccc1	-0.7	0.0	-1	-4.3	3.8	0.71	0%
O=c1cc(-c2ccccc2)nc2nc(SCc3ccccc3)[nH]n12	0.9	-0.4	1	2.7	2.5	0.68	-1%
CCOc1ccc(N=c2cc(-c3ccc(OC)cc3)oc3ccccc23)cc1	-1.7	1.0	-10	0.8	-6.8	0.71	nt
CCc1ccc(C(=O)COC(=O)C(Cc2ccccc2)NC(=O)C2CCC(C)CC2)cc1 (stereo unspecified)	2.9	1.9	-1	1.0	-1.2	0.7	-1%
New compounds follow.
SMILES	LANA-H2B inh	A1 inh	Beta2AR agonist	UCH37 inh	HNF4A DNA FP	Ecoli growth	Vif A3G
CCOC(=O)N1CCN(C(=O)c2cc3cc(F)ccc3[nH]2)CC1	1.9	0.0	4	1.2	-2.7	0.69	-5%
COCCCn1c(SCC(=O)OC2CCCCC2)nnc1-c1cccs1	0.1	0.6	1	1.0	-4.0	0.66	-3%
CCOc1cccc(/C(O)=C2/C(=O)C(=O)N(CCOC)C2c2ccncc2)c1 (stereo unspecified)	-1.9	1.2	0	12	0.4	0.68	1%
CCOC(=O)C1CCCN(S(=O)(=O)Cc2ccccc2Cl)C1 (stereo unspecified)	1.0	0.2	0	0.0	-4.2	0.66	nt
Cc1ccccc1C(CC(=O)c1cccs1)C(C#N)C#N (stereo unspecified)	1.4	-0.2	21	1.9	-1.5	0.63	nt
CC(C)c1ccc(N(C(=O)c2ccc3c(c2)OCO3)C2C=CS(=O)(=O)C2)cc1 (stereo unspecified)	2.3	-0.6	0	-0.1	1.3	0.7	nt
CCOc1ccc(CCNC(=O)C2CCC(=O)N2C2CCCCC2)cc1OCC (stereo unspecified)	3.3	0.4	3	4.5	-1.1	0.72	1%
CCOc1ccccc1N1CCN(S(=O)(=O)c2ccc(Cl)s2)CC1	-0.3	-0.2	3	0.9	-1.7	0.71	2%
COc1ccc(CCC(=O)OC(C)C(=O)c2ccc(C)cc2)cc1 (stereo unspecified)	-3.1	-0.3	7	0.9	-0.6	nt	nt
COc1cc(CNC2CCCCC2)c(Br)cc1OC1CCCC1	0.9	0.1	2	2.0	-0.2	0.64	3%
CCC(C)NS(=O)(=O)c1ccc(NS(=O)(=O)c2ccccc2[N+](=O)[O-])cc1 (stereo unspecified)	0.0	-0.4	-2	3.1	4.4	0.68	nt
CC1CCN(C(=O)COC(=O)c2n[nH]c3ccccc23)CC1	5.6	-2.5	-2	-1.8	-0.5	0.7	-4%
O=C(NCC(=O)N(Cc1ccco1)C(C(=O)NC1CCCCC1)c1ccncc1)c1cccs1 (stereo unspecified)	-3.0	0.2	-8	2.0	-2.2	0.69	2%
CC(O)CC(C)O (stereo unspecified)	4.1	2.7	1	1.7	-4.4	0.66	nt

Record cards (already shown). Order of screens: LANA-H2B inh, A1 inh, Beta2AR agonist, UCH37 inh, HNF4A DNA FP, Ecoli growth, Vif A3G
Cc1ccccc1C(CC(=O)c1cccs1)C(C#N)C#N (stereo unspecified) is entered as 1.4, -0.2, 21, 1.9, -1.5, 0.63, nt
COCCCn1c(SCC(=O)OC2CCCCC2)nnc1-c1cccs1 is entered as 0.1, 0.6, 1, 1.0, -4.0, 0.66, -3%
CCOc1ccc(CCNC(=O)C2CCC(=O)N2C2CCCCC2)cc1OCC (stereo unspecified) is entered as 3.3, 0.4, 3, 4.5, -1.1, 0.72, 1%

Screening results as filed in PubChem BioAssay.

Not a hit list (roughly 2.1% active in at least one column).
